# RecA splice inh – Mtb RecA intein splicing inhibition; P9WHJ3; inhibition, %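 (about 9 µM by stock and volumes)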; AID 2221; cell-free RecA intein splicing, fluorescence; 290,000 tested, 0.75% active; in the data active means inhibition above about 30%; inconclusive means no clear call, values can overlap the other calls;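 further: 0% = vehicle wells and 100% = reference inhibitor control wells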
# Target sequence (P9WHJ3 whole entry, looked up, canonical isoform): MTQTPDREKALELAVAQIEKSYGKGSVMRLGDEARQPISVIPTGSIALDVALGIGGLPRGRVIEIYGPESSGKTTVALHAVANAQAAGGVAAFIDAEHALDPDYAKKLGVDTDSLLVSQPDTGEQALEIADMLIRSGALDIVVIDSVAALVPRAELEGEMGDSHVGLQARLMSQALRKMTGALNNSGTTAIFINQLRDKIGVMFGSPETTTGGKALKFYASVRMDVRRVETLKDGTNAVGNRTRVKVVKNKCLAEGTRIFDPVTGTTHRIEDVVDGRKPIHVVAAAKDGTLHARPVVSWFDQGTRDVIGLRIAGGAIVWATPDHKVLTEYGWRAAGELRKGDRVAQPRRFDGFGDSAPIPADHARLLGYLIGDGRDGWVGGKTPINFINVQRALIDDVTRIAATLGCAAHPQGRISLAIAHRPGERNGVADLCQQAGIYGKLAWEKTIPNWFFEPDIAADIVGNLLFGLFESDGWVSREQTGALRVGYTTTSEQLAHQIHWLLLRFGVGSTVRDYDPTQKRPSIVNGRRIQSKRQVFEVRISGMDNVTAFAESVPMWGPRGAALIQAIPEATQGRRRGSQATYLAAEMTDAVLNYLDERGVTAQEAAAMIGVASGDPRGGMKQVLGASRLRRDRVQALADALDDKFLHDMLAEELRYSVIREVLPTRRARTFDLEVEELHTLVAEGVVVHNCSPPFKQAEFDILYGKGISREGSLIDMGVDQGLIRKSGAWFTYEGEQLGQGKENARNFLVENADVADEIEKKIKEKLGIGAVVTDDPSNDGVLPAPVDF
# YopH inh – blocks Yersinia enterocolitica YopH tyrosine phosphatase. fluorescence Ex485/Em525. 140,000 tested, 0.16% active. AID 898. inhibition, %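 (about 10 µM by stock and volumes)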;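 active means inhibition of 50% or more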;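 further: controls were vehicle for no effect and minimum signal wells for full effect; inactives centre near -20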
# Mtb H37Rv – M. tuberculosis H37Rv growth inhibitors, H37Rv strain (AID 1626) | one-dose inhibition, % at 10 µM; IC50 in µM for titrated hits | M. tuberculosis H37Rv growth inhibition; higher % means a stronger effect | 220,000 tested, 0.95% active;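 active means confirmed in a dose series; inconclusive means inhibition above 80% but not taken into the dose series; inactive means below 80% or under 30% at every dose of the series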;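 further: bacteria incubated seven days before Alamar blue readout; 0% = bacteria only wells and 100% = bacteria with antibiotic wells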
# Arbovirus anti – blocks arbovirus infection; arbovirus infection cell-based antiviral screen; inhibition, % at 10 µM; 200,000 tested, 0.37% active;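 active means inhibition from about 30%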;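 further: bluetongue infection of BSR cells; cell survival read as ATP light after 72 h; 0% = infected wells without compound and 100% = uninfected wells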
# Mtb betalactam – beta-lactam sensitization of Mtb H37Rv | inhibition, % at 25 µM | AID 434955 | 330,000 tested, 0.27% active | M. tuberculosis H37Rv growth with meropenem, percent inhibition; hits of this screen are not shown here;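 active means about 74% or more and at least 40 points above the plate without the antibiotic, then above 30% in a dose series; inconclusive means first-round hits that could not be retested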;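 further: growth measured after seven days incubation then overnight dye step; 0% = bacteria only wells and 100% = bacteria with antibiotic; twin plates without the antibiotic show which effects depend on it; some results filed as inactive read as strong as hits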
# Arbovirus anti repeat – also measured in Arbovirus anti; calls as there; inhibition, %; measured here: 10K subset replicate screen; many hits read low in the repeat;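 first of two repeat runs on a subset; 0% = infected and 100% = uninfected wells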
# Starred values were filed as active, the others as inactive; ? = inconclusive; / = no result given.
SMILES,RecA splice inh,YopH inh,Mtb H37Rv,Arbovirus anti,Mtb betalactam,others
CC1=NN(/C(=N\c2nnc(C)s2)Nc2ccc(C(C)(C)C)cc2)[C@H](c2ccc(C)cc2)S1,12,-3,-1%,-13,7,
O=C(COc1ccc2ccccc2c1)NNC(=O)Cc1cccc2ccccc12,-0.4,-23,0%,-11,31,
CC(C)(C)c1ccc(C(=O)C2CCCN(Cc3ccon3)C2)cc1 (centres undefined),2.4,/,9%,8,9,
COc1ccccc1NS(=O)(=O)c1cc(NC(=O)c2sc3cc(Cl)ccc3c2Cl)ccc1C,2.1,/,5%,-10,3,
CCN1CCCc2cc(CN(CCN3CCOCC3)C(=S)Nc3ccc(OC)c(Cl)c3)ccc21,0.8,/,25%,-10,-3,
O=C(c1ccco1)N1CCN(c2ccc([N+](=O)[O-])cc2F)CC1,3.8,/,/,/,-13,
CCC(C(=O)NC1CCCC1)N(Cc1ccc2c(c1)OCO2)C(=O)c1snc(C(N)=O)c1N (centres undefined),-6.0,-25,-5%,-9,-13,
COc1cccc(NC(=O)c2cc3ccccc3oc2=O)c1,-0.7,/,/,/,3,
Cn1cccc1-c1cc(C(=O)N2CCc3c([nH]c4ccccc34)C2c2ccccn2)[nH]n1 (centres undefined),11,/,19%,1,68,
CCOC(=O)C1C(=O)CC(C)(O)C(C(=O)OCC)C1c1ccccc1 (centres undefined),/,29,2%,-2,-5,
COc1ccc(S(=O)(=O)NCCCN2CCOCC2)c2ccccc12,0.2,-34,-9%,3,-7,
COc1nc(/C(N)=N/O)nc(N2CCCCC2)n1,-1.8,-32,98%,2,1,
Cc1ccc(-c2nc3nc4ccccc4nc3n2Cc2ccco2)cc1,3.4,-34,3%,10,-5,
COc1cc(C(CCN2CCOCC2)c2c(OC)cc(OC)c3c2OC(=O)CC3c2ccc(N(C)C)cc2)cc(OC)c1OC (centres undefined),19,/,-14%,/,-10,
Cc1nc(CCNS(=O)(=O)c2cccnc2)cs1,1.8,/,4%,/,-3,
COc1ccc(CCNC(=O)c2ccc3ccccc3n2)cc1,6.3,/,/,/,0,
CSc1nc2ccccc2n1CC(=O)Nc1c(C)cccc1C,-3.0,-13,-8%,-7,-18,
CN(Cc1ccc(F)cc1)C(=O)CNC(=O)c1ccc2c(c1)OCO2,-3.6,/,/,/,-5,
OC(COC(c1ccc(Cl)cc1)c1ccc(Cl)cc1)CN1CCCC1 (centres undefined),4.2,-14,-6%,-42,-17,
O=c1c(-c2nc3ccccc3s2)cccn1Cc1ccc(Cl)cc1,-0.8,-40,-4%,4,-16,
Cc1ccc(Cn2nnc3c(=O)n(CC(=O)NCc4ccco4)cnc32)cc1,3.0,-14,-5%,-23,-6,
c1ccc(OCc2nnc3n2N=C(c2ccccc2)CS3)cc1,-0.1,/,26%,-3,-2,
O=C(COC(=O)[C@H](Cc1ccccc1)NC(=O)c1cccs1)NC1CC1,1.1,-29,-5%,3,1,
O=C1c2oc3ccccc3c(=O)c2C(c2ccccn2)N1Cc1ccccc1 (centres undefined),0.7,13,-5%,3,8,
COc1cccc(-c2nc(CS(=O)(=O)CC(=O)NCc3ccccc3OC)c(C)o2)c1,1.5,-20,-7%,-3,2,Arbovirus anti repeat=1
CC(=O)NCc1nc2ccccc2n1Cc1ccccc1F,-0.8,-19,-6%,5,-2,Arbovirus anti repeat=-1
COc1ccc(/C=C2\Oc3cc(OCC(=O)N4CCC[C@H]4C(=O)O)ccc3C2=O)c(OC)c1,-1.6,/,/,/,-3,
O=C(O)/C=C\C(=O)Nc1ccc(N2CCN(c3ccc(F)cc3)CC2)cc1,1.7,/,2%,0,0,
O=C(CSc1ccc2nnc(-c3ccc(Cl)cc3)n2n1)N1CCCc2ccccc21,-0.4,-18,-6%,-16,11,
Cc1cc(NC(=O)c2ccc(F)cc2F)n(-c2nc3ccccc3[nH]2)n1,0.6,-11,4%,1,47,
[O-][n+]1onc2c3cc(-c4ccccc4)nnc3ccc21,2.0,8,<0.2µM*,-16,100,
COc1cc(/C=C/C(=O)OCC(=O)Nc2ccc(NC(C)=O)cc2)cc(S(=O)(=O)N2CCc3ccccc32)c1OC,2.9,/,-2%,12,-3,
CCCCCCc1ccc(-c2ncc(N)cn2)cc1,0.8,-16,-4%,-24,37,
O=c1cccc2n1CC1CNCC2C1 (centres undefined),-3.5,/,/,/,-3,
O=C(CSc1nc(O)cc(=O)n1-c1ccccc1)Nc1ccccn1,0.9,/,1%,5,-1,
COc1ccc(/C=N/NC(=O)c2[nH]c3ccc(Cl)cc3c2-c2ccccc2)c(C(=O)O)c1OC,-2.4,/,/,/,3,
O=C(COC(=O)c1cc[n+]([O-])cc1)NCc1ccccc1Cl,-2.0,/,7%,27,2,
CC(=O)c1ccc(NC(=O)c2cn(-c3ccccc3)nc2-c2ccncc2)cc1,-0.3,-30,-6%,-3,13,
CC(C)CC(=O)O/N=C1\C(=O)N(c2ccccc2)c2ccccc21,-4.8,-41,1%,3,-4,
CCOC(=O)c1cc(C)[nH]c1C,2.1,/,-13%,/,2,
COc1ccc(NC(C)=O)cc1NC(=O)CN1CCN(C(=O)c2ccco2)CC1,0.0,-39,0%,11,45,
CCOC(=O)c1ccc(Cn2c(-c3ccccc3)nnc2-c2ccccc2)o1,2.5,5,-3%,-1,4,
COc1cccc(CNC(=O)CCCn2ccc3cc(S(=O)(=O)N4CCCC4)ccc32)c1,3.1,/,/,/,-6,
Cc1ccc(/C=N\NC(=O)c2ccc3c(c2)OCO3)o1,-0.7,/,/,/,-1,
COc1ccc(Br)cc1/C=N/NC(=O)CN1CCN(Cc2ccccc2)CC1,2.6,/,-11%,/,-9,
CCOC(=O)c1cc(C#N)c(SC)nc1-c1ccccc1,6.8,-40,6%,6,21,
O=C(Nc1nnc(-c2ccccc2Cl)o1)c1nc2ccccc2s1,-0.7,-42,?,-33,92,
CC(Sc1nnc(COc2ccccc2)n1Cc1ccccc1)C(=O)O (centres undefined),-0.3,/,-6%,4,-2,
Cc1cc(C)c(NC(=O)C(C)N2CCCCCC2)c(C)c1 (centres undefined),-4.1,/,/,/,-3,
O=C(COC(=O)c1ccccc1SCC(=O)N1CCCC1)Nc1ccccc1C(F)(F)F,2.3,/,/,/,8,
CC(=O)Cc1cc(O)c2ccccc2c1OC(=O)c1ccccc1,/,/,10%,-22,-4,
CC(C)CNC(=O)C1c2ccccc2Oc2ccccc21,-1.1,/,-9%,8,-2,
COc1ccc(C)cc1NC(=S)N1CC(C)OC(C)C1 (centres undefined),-1.9,/,/,/,-2,
CCOC(=O)c1sc(-n2[nH]c(C)cc2=O)nc1C,-3.8,-19,-6%,4,0,
Cc1cc(C)cc(NC(=O)Nc2ccc(Cl)cn2)c1,-0.8,/,4%,1,1,
CCc1nccc2c1[nH]c1ccccc12,-5.5,/,/,/,1,
CN(C)c1nc(OCCNC(=O)Nc2ccccc2)nc(N(C)C)n1,1.1,-23,-7%,-3,-3,
COc1ccc(C2=NN(C(C)=O)C(c3ccccc3)C2)cc1 (centres undefined),3.6,/,/,/,-3,
CSc1ncccc1C(=O)OCC(=O)NC1CCS(=O)(=O)C1 (centres undefined),0.0,-25,-6%,-3,-5,
Cc1ccc(/C=C/C2=Cc3c(sc(NC(=O)CSc4n[nH]c(N)n4)c3C#N)C(C)(C)C2)o1,0.2,-33,-12%,28,10,

# Other compounds.
SMILES,RecA splice inh,YopH inh,Mtb H37Rv,Arbovirus anti,Mtb betalactam,others
O=C(O)CNS(=O)(=O)c1ccc(Br)s1,-1.3,-35,-9%,0,14,
CN(C)c1nc(/C=C(\C#N)C(N)=O)c(Cl)n1-c1ccc(F)cc1,4.9,/,2%,11,-4,
CN(CCOc1ccccc1)CC(=O)Nc1cc([N+](=O)[O-])ccc1Cl,3.4,/,6%,1,-9,
O=C(c1ccccc1F)n1c2c(c3ccccc31)CCCC2,12,/,/,/,5,
CC(C)n1cnc2cc(NCc3ccco3)ccc21,-3.5,-4,-3%,8,-12,
COc1ccccc1C1(CC(=O)O)CCOC(C)(C)C1 (centres undefined),-4.2,-22,-2%,5,-1,Arbovirus anti repeat=1
CN(C)c1ccc(/C=N/N=C(N)N)cc1[N+](=O)[O-],2.7,/,-2%,-21,2,
CCOC(=O)Nc1ccc(C)cc1NC(=O)OCC,0.7,-11,/,7,-7,
O=C1CCCCCCC1Sc1ccccc1[N+](=O)[O-] (centres undefined),-5.0,-7,-3%,3,0,
Cc1cc([N+](=O)[O-])cc(C)c1OCC(=O)N/N=C/c1ccc(OC(=O)c2ccccc2Br)cc1,1.5,-2,33%,-6,37,
COc1ccccc1NC(=O)CSc1nnc(CC(=O)Nc2ccccc2F)n1C,-1.1,/,/,/,1,
COc1cc(C(=S)N2CCOCC2)cc(OC)c1OS(=O)(=O)c1ccc(NC(C)=O)cc1,-8.5,-26,-7%,14,0,
COc1cc(OC)cc(C(=O)N2CCN(c3ccccc3F)CC2)c1,0.1,1,/,-5,23,
COc1ccc(C2=NS(=O)(=O)N(C)C(C(=O)N3CCC(C(N)=O)CC3)=C2)cc1,-1.1,/,/,/,-2,
COc1ccc(N2C(=O)C(CC(=O)Nc3ccccc3)N(Cc3cccs3)C2=O)cc1 (centres undefined),-0.2,/,3%,4,0,
Cc1cccc2nc(CSc3nc4cc([N+](=O)[O-])ccc4s3)cn12,-1.2,2,-4%,4,-1,
COc1cc(OC)c2c(c1)O[C@@H](c1ccc(OC)c(OC)c1)[C@H](O)C2,-5.4,/,/,/,-4,
O=C1CCN(Cc2ccc(Br)cc2)CCN1[C@H](CO)c1ccccc1,-2.9,/,/,/,-6,
COc1cccc(N=Nc2ccc(O)c3ncccc23)c1,-1.9,/,/,/,69,
Cc1ccc(C(=O)O/N=C\c2ccc(N3CCOCC3)c([N+](=O)[O-])c2)cc1,-1.0,-30,/,-3,16,
CCS(=O)(=O)Nc1ccc(-c2nc3cccnc3s2)cc1,-18,/,-3%,-3,-7,
COC(=O)[C@@]12CCCCN1[C@H](c1ccc(-c3ccc(C(C)=O)cc3)c(OC)c1)[C@@H]1C(=O)N(C)C(=O)[C@@H]12,5.8,/,/,/,11,
COc1ccc(N(CC(=O)N/N=C/c2cc(Br)c(C)o2)S(=O)(=O)c2ccc(NC(C)=O)cc2)cc1,7.3,/,-18%,-16,0,
CCOC(=O)C1CCCN(S(=O)(=O)c2ccc(S(=O)(=O)N(CC)CC)cc2)C1 (centres undefined),-2.5,/,-6%,14,-3,

# The last five entries of the section above are carried over, then new ones follow:
SMILES,RecA splice inh,YopH inh,Mtb H37Rv,Arbovirus anti,Mtb betalactam,others
Cc1ccc(C(=O)O/N=C\c2ccc(N3CCOCC3)c([N+](=O)[O-])c2)cc1,-1.0,-30,/,-3,16,
CCS(=O)(=O)Nc1ccc(-c2nc3cccnc3s2)cc1,-18,/,-3%,-3,-7,
COC(=O)[C@@]12CCCCN1[C@H](c1ccc(-c3ccc(C(C)=O)cc3)c(OC)c1)[C@@H]1C(=O)N(C)C(=O)[C@@H]12,5.8,/,/,/,11,
COc1ccc(N(CC(=O)N/N=C/c2cc(Br)c(C)o2)S(=O)(=O)c2ccc(NC(C)=O)cc2)cc1,7.3,/,-18%,-16,0,
CCOC(=O)C1CCCN(S(=O)(=O)c2ccc(S(=O)(=O)N(CC)CC)cc2)C1 (centres undefined),-2.5,/,-6%,14,-3,
N#C/C(=C\c1ccccc1OCc1ccc(C(=O)O)cc1)C(=O)Nc1ccc(O)cc1,-2.2,/,5%,-10,-4,
O=C(CN(C(=O)CCC(=O)Nc1nccs1)c1cccc(F)c1)NCCc1ccccc1,-1.3,/,/,/,-1,
Cn1ncc(Br)c1C(=O)N/N=C/c1ccc(OS(=O)(=O)c2ccccc2)cc1,0.4,-141,-2%,-3,1,
COc1ccccc1C(C)NCC(=O)NC(=O)NCc1ccco1 (centres undefined),-0.8,/,/,/,-12,
Cc1ccc(C(C(=O)NC2CCCCC2)N(C(=O)CCCC(=O)Nc2ccccn2)c2ccc3c(c2)OCCO3)cc1 (centres undefined),1.7,-43,19%,6,-3,
CC(Sc1cccc[n+]1[O-])C(=O)Nc1cccc(S(=O)(=O)N2CCOCC2)c1 (centres undefined),-3.2,-45,-2%,-2,?,
COC(=O)N/N=C/c1cn(CCCOc2ccccc2)c2ccccc12,4.1,-27,7%,-6,-7,
O=C(CNc1ccccc1-c1ccccc1)NCc1ccccc1,5.5,-25,2%,4,8,
O=C(C(=O)N1CCN(Cc2ccc3c(c2)OCO3)CC1)c1c[nH]c2ccccc12,-3.5,/,/,/,-1,
CCCCN(C(=O)c1ccc(Cl)c(S(=O)(=O)N2CCOCC2)c1)c1c(N)n(CCC)c(=O)[nH]c1=O,-1.9,/,6%,/,-6,

# Source: PubChem

# Only part of the results is shown, so the mix of outcomes need not match the whole.
